Screening results: PubChem, Fisher Drug Discovery Resource Center
NPYLR7 ag: mosquito NPYLR7 agonism; HEK293T NPYLR7/Galpha15, GCaMP6s calcium fluorescence; AID 1259423; activation, % at 10 µM; hit rate 0.15% among 270,000; in the data active means activation above about 40%;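 further: 0% = vehicle and 100% = reference agonist at the receptor; some compounds past the cut are filed as inactive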
NPYLR7 ag max-min: recorded beside NPYLR7 ag, whose call it bears; activation, %; measured here: Max-Min RFU normalised activation; some inactives read as strong as hits;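 span of the calcium signal over five minutes; 0% = vehicle and 100% = native peptide agonist; compound fluorescence can raise it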
* hit, by the source's call; & = joins results of further samples.

SMILES	NPYLR7 ag	NPYLR7 ag max-min
Cc1cc(NS(=O)(=O)c2ccc(F)c(F)c2)ccc1N1CCCC1=O	2	3
CCN(CC)C(=O)CN(C#N)c1nc(C)cc(C)n1	1	0
CC(=O)c1[nH]c(C)c(C(=O)N2C[C@H]3CC=CC[C@H]3C2)c1C	7	4
CC(C)c1ccc(NC(=O)C(C2CCCC2)N2CCN(C(=O)c3cccc(Br)c3)CC2)cc1 (stereo unspecified)	-1	3
C=CCO/N=C(/C)c1c(O)c(C)c(-c2ccccc2)n(-c2ccccc2)c1=O	6	5
C=CCN(C(=O)c1ccccc1)C(C#N)c1ccccc1OCc1ccccc1 (stereo unspecified)	-3	33
CCOc1ccccc1N1C(=O)CSC1c1cccc(NC(=O)Cc2cccs2)c1 (stereo unspecified)	2	12
COc1cccc(-c2cc(C(=O)N3CCCC3)nc3cc(C(C)(C)C)nn23)c1	18	13
O=C(c1n[nH]c2ccccc12)N1CCOC(COCc2c(Cl)cccc2Cl)C1 (stereo unspecified)	25	33
CC1CNC(=O)CCN1C(=O)c1cc(-n2cccn2)ccc1Cl (stereo unspecified)	11	6
O=C(Nc1ccc(F)c(F)c1F)c1ccc(=O)n(Cc2cccc(F)c2)c1	15	7
NC(=O)COC(=O)C=Cc1cccs1	5	4
O=C(NNC1=NC2(CCCC2)Cc2ccccc21)c1ccccc1	-7	-6
COc1cccc(CNC(=O)CCC2CCCN(C3C4CC5CC(C4)CC3C5)C2)c1 (stereo unspecified)	4	-8
CC1(C)CC(=O)c2c(C(F)(F)F)nn(-c3ccc(C(N)=O)c(NC4CCC(OC(=O)CN)CC4)c3)c2C1 (stereo unspecified)	-2	-9
COc1ccc(-c2nnc(SCC(=O)N/N=C\c3ccc(O)cc3O)n2-c2ccccc2)cc1OC	-6	-8
Cc1ccc(CNC(=O)c2cncn2-c2cccc(-c3ccccc3C(F)(F)F)c2)o1	1	6
COCc1cc(N2CCN(C)CC2)nc(SCc2ccc(C(=O)O)cc2)n1	-15	-6
COc1ccc(C2c3c(n[nH]c3-c3ccc(Br)cc3)OC(=N)C2C#N)cc1O (stereo unspecified)	-2	-12
Cc1cc(C)c(S(=O)(=O)N2CCCN(c3nc(Cc4ccccc4)nc4c3c(C)nn4-c3ccccc3)CC2)c(C)c1	10	14
COCCN1CCC(N(Cc2nnc(C3CC3)n2C)C(C)=O)C1 (stereo unspecified)	1	1
Cc1[nH]c2nc3c(c(=O)n(Cc4ccc(Br)cc4)c(=O)n3C)n2c1C	8	13
Cc1ccccc1-n1c(SCC(=O)N2CCOCC2)nnc1-c1ccccc1Cl	4	4
CCN1CCN(c2oc(-c3ccc(COc4ccccc4C)o3)nc2C#N)CC1	0	33
COc1ccc(S(=O)(=O)NCc2ccc3c(c2)OCO3)cc1OC	-5	-7

A draw from above in order of count of non-hydrogen atoms, falling.
SMILES	NPYLR7 ag	NPYLR7 ag max-min
COc1ccc(-c2nnc(SCC(=O)N/N=C\c3ccc(O)cc3O)n2-c2ccccc2)cc1OC	-6	-8
Cc1ccc(CNC(=O)c2cncn2-c2cccc(-c3ccccc3C(F)(F)F)c2)o1	1	6
COc1cccc(CNC(=O)CCC2CCCN(C3C4CC5CC(C4)CC3C5)C2)c1 (stereo unspecified)	4	-8

(list continues)
SMILES	NPYLR7 ag	NPYLR7 ag max-min
COC(=O)c1ccc(C2c3c(oc4ccc(F)cc4c3=O)C(=O)N2c2cc(C)on2)cc1 (stereo unspecified)	0	1
O=C1OCCN1S(=O)(=O)c1ccc(Cl)cc1	5	3
C[C@@H](C(=O)NCC(O)COc1ccc(F)c(F)c1)N(C)C (stereo partly specified)	-1	281
COCC(C)NC(=O)c1cccc(NCc2ccccn2)c1C (stereo unspecified)	-3	-12
O=C(Cn1ncc(Cl)c(Cl)c1=O)c1ccc2c(c1)CCC2	6	8
CCOC1CCCN(C(=O)c2cnn(-c3ccccc3)c2CC)C1 (stereo unspecified)	8	5
CC(C)(CNCc1cccc(C#N)c1)N1CCc2ccccc2C1	3	0
N#Cc1cc(Oc2cccnc2)c(Oc2cccnc2)cc1C#N	-1	-5
COc1cc(=O)n(-c2ccc(C)cc2)nc1C(=O)Nc1ccccc1O	9	2
COc1ccccc1CNC(=O)C1(C)CCN1C(=O)C(C)(C)c1ccccc1 (stereo unspecified)	9	8
O=C(NCc1ccc2c(c1)OCO2)C1CSC2(CCNCC2)N1 (stereo unspecified)	10	17
COc1cc(C(=O)NCc2cccc(C)n2)ccc1OC1CCN(C2CCCC2)CC1	6	3
O=C(NCc1ccco1)c1cnn(CC(F)(F)F)c1-c1ccccc1	-5	1
Cc1nnc(NC(=O)CSc2nnc(CNC(=O)COc3ccccc3)n2-c2ccc(Br)cc2)s1	-7	-3
Cc1nn(-c2ccccc2)c(C)c1CC(=O)NCCc1n[nH]c2c1CCCC2	17	10
CNC(=O)[C@@H](NC(=O)[C@H](CC(C)C)[C@H](O)C(=O)NO)C(C)(C)C	3	-5
CCn1ncc(C2=NOC(C(=O)Nc3cc(C)on3)C2)c1C (stereo unspecified)	10	10
CCOC(=O)C1CCCN(CC(=O)N2N=C(c3ccc(OC)cc3)CC2c2ccccc2C)C1 (stereo unspecified)	-3	7
O=C(c1ccc(F)cc1)N1CCN(c2cc(Oc3ccc(F)cc3)ncn2)CC1	8	7
O=C(NCc1cccc(F)c1)Nc1nn(Cc2ccc(C(F)(F)F)cc2)c2ccccc12	14	13
O=C(NC(c1ccccc1)c1ccco1)c1cn(Cc2ccccc2C(F)(F)F)nn1 (stereo unspecified)	6	3
Cc1ccccc1NS(=O)(=O)c1ccc2c(c1)CCCC2	3	4
OC(Cc1ccccc1)CN(CCN1CCOCC1)Cc1cccs1 (stereo unspecified)	25	28
COc1ccccc1C1=COc2cc(OCc3ccc(C)cc3)ccc2C1O (stereo unspecified)	-1	-3
COCC(=O)N1CCc2c([nH]c3ccccc23)C1c1ccc(OC)cc1F (stereo unspecified)	6&-6	2&-9

Some values from above.
NPYLR7 ag max-min, O=C(NCc1ccco1)c1cnn(CC(F)(F)F)c1-c1ccccc1 = 1
NPYLR7 ag max-min, CC(C)(CNCc1cccc(C#N)c1)N1CCc2ccccc2C1 = 0
NPYLR7 ag max-min, O=C(NC(c1ccccc1)c1ccco1)c1cn(Cc2ccccc2C(F)(F)F)nn1 (stereo unspecified) = 3
NPYLR7 ag, COc1cc(=O)n(-c2ccc(C)cc2)nc1C(=O)Nc1ccccc1O = 9
NPYLR7 ag, O=C1OCCN1S(=O)(=O)c1ccc(Cl)cc1 = 5

Compound profiles, from the list above. Values in the order: NPYLR7 ag | NPYLR7 ag max-min
`CCn1ncc(C2=NOC(C(=O)Nc3cc(C)on3)C2)c1C` (stereo unspecified) reads 10 | 10
`O=C(Cn1ncc(Cl)c(Cl)c1=O)c1ccc2c(c1)CCC2` reads 6 | 8
`CCOC(=O)C1CCCN(CC(=O)N2N=C(c3ccc(OC)cc3)CC2c2ccccc2C)C1` (stereo unspecified) reads -3 | 7
`CC(C)(CNCc1cccc(C#N)c1)N1CCc2ccccc2C1` reads 3 | 0
`O=C(c1ccc(F)cc1)N1CCN(c2cc(Oc3ccc(F)cc3)ncn2)CC1` reads 8 | 7

Remaining list, next part.
SMILES	NPYLR7 ag	NPYLR7 ag max-min
COc1ccc(C(CNC(=O)Nc2cccc3ccccc23)N2CCOCC2)cc1OC (stereo unspecified)	2	50
CCOC(=O)c1cc(-c2cccc(NC(=O)C(OC(C)=O)c3ccccc3)c2)n(-c2ccccc2C)n1 (stereo unspecified)	34	16
CCOC(=O)C1C(=O)NCC12CCN(C(=O)c1cccc3c1OC(F)(F)O3)CC2 (stereo unspecified)	-8	2
CC1CCc2c(sc(NC(=O)c3ccc(Br)cc3)c2C(=O)Nc2ccccc2)C1 (stereo unspecified)	1	5
CNC(=O)NC(=O)C(C)N1CCCC(CN(C(=O)OC(C)(C)C)C(C)C)C1 (stereo unspecified)	12	8
O=C(Cc1cc(-c2cccs2)on1)Nc1ccc(F)c(C(F)(F)F)c1	5	4
COc1cc(Cl)c(C)cc1-n1ccn(CC(=O)c2ccc(F)cc2)c(=O)c1=O	16	13
O=C(c1n[nH]c2ccccc12)N1CCOC(Cc2ccccc2)C1 (stereo unspecified)	21	32
O=C(COc1ccccc1)Nc1cccc(-c2cccc(-c3ccc(F)cc3)n2)c1	14	22
CCn1ncc(C2=NC(NNC3OC(=O)c4ccccc43)=NC(C(F)F)C2)c1C (stereo unspecified)	2	44
Cc1ccc(C2c3ccsc3CCN2C(=O)CN(C(=O)c2ccc(C)c([N+](=O)[O-])c2)C2CC2)cc1 (stereo unspecified)	21	27
O=C(Nc1cccc2cccnc12)c1ccc(N2C(=O)[C@@H]3[C@H](C2=O)[C@@H]2C=C[C@H]3C2)cc1	-13	-15
Cc1ccccc1Cn1nc(-c2ccccc2)c2sc(N3CCCC3)nc2c1=O	-4	-9
Cc1ccc(-n2c(SCCCCC(=O)N3CCN(C(=O)COc4ccc(Cl)cc4)C(C)C3)nnc2-c2ccccc2)cc1 (stereo unspecified)	20	15
COc1ccc(-c2csc(-n3[nH]c(C)c(N=Nc4c(C)cccc4[N+](=O)[O-])c3=O)n2)cc1	-6	-9
Cc1cnc(C)c(-c2ccccc2C(=O)N(C(C)C)C(C)C)n1	12	10
CCOC(=O)C1(C)CCN1C(=O)c1ccc(OC)c(F)c1 (stereo unspecified)	-1	-3
COc1ccc(-c2cc(C(=O)NC(C)CCc3ccccc3)n3nc(-c4ccccc4)cc3n2)cc1 (stereo unspecified)	7	14
O=c1oc2ccc([N+](=O)[O-])cc2cc1-c1csc(N/N=C\c2ccccc2)n1	15	1
Cc1ccc(-c2nc(CN3CCCC4(C3)CN(C)C(=O)O4)no2)cc1 (stereo unspecified)	-1	3
Cc1nnc(SCCn2c(N3CCN(C)CC3)nc3c2c(=O)[nH]c(=O)n3C)s1	-1	54
CC(C)C[C@H](NC(=O)c1cccc(C#N)c1)C(=O)N1CCC2(CC1)Nc1ccccc1S(=O)(=O)N2	4	19
NCC1Cc2cc(-c3ccc4ccccc4n3)cc(Cl)c2O1 (stereo unspecified)	3	5
O=C(NCC1CCCN(C(=O)NCc2ccccc2)C1)c1cccc(C(F)(F)F)c1 (stereo unspecified)	14	6
Nc1nnc(C2CCCCC2)s1	7	11

(next part)
SMILES	NPYLR7 ag	NPYLR7 ag max-min
CC1(C(=O)NS(=O)(=O)Cc2cccc(Cl)c2)CCN1C(=O)CC1CCCCC1 (stereo unspecified)	5	5
COc1ccc(OC)c(C2C(C(=O)c3cccs3)=C(O)C(=O)N2CCCn2ccnc2)c1 (stereo unspecified)	15	17
Cc1ccccc1-c1nn2c(-c3cc(C(C)C)[nH]n3)nnc2s1	-7	-16
CCOCCOc1n[nH]c(-c2ccc(OC)cc2)n1	5	10
O=C(O)C1COC2(CCN(C(=O)Cc3cccs3)CC2)N1C(=O)c1ccc(F)cc1 (stereo unspecified)	4	20
COC(=O)c1cc(NC(C)=O)ccc1O	1	0
CS(=O)(=O)Cc1cccc(C(=O)Nc2ccc(Cl)cc2Cl)c1	-2	-5
CN(Cc1cccs1)Cc1cnc(S(C)(=O)=O)n1Cc1ccccc1F	15	7
CN1CCN(C(=O)c2cc(COc3ccc(-n4cncn4)cc3)on2)CC1c1ccccc1 (stereo unspecified)	0&4	-2&0
Cc1ccc(N(C)S(=O)(=O)c2cc(Cl)c(Cl)c(C(=O)O)c2)cc1	0	35
N#CCc1ccc(NC(=O)N2CCN(C(c3ccccc3)c3ccc(Br)cc3)CC2)cc1 (stereo unspecified)	20	-2
COc1ccc(OC)c(CN2CCCn3cccc3C2c2cccc(C(F)(F)F)c2)c1 (stereo unspecified)	-9	-6
COC(=O)C1=C(O)/C(=C\c2ccc3c(c2)OCO3)SC1=Nc1ccccc1OC	-1	7
O=C(Nc1ccccc1Oc1cccnc1)C1CCCN(Cc2ccccc2O)C1 (stereo unspecified)	5	-1
O=C1/C(=C/c2cccs2)C(c2cccs2)Oc2ccccc21 (stereo unspecified)	-6	-8
CC(C)c1ccc(CN2CCN(C3CS(=O)(=O)CC3O)CC2)cc1 (stereo unspecified)	-1	5
CCCN(Cc1ccc(C(O)(c2cccc(F)c2)c2cccc(F)c2)o1)Cc1cccn1C	-10	-4
CC1(C)Cc2c(sc(N=CN3CCCCC3)c2C#N)C(C)(C)N1	5	4
Cc1cc(C)n(-c2ccc(C(=O)NCc3n[nH]c4c3CCC4)cc2)n1	2	-6
C(=C\c1ccccn1)/c1cccc(-n2cnnc2)c1	17	2
COc1cccc(NC(=O)Nc2ccc(N3CCN(c4ccccc4OC)CC3)c(C(=O)NCCCN3CCOCC3)c2)c1	20	24
CCn1cc(NC(=O)c2cccc(CN3CCCC3c3cc(C)no3)c2)nn1 (stereo unspecified)	22	12
COc1ccccc1-n1ncc2c(C(C)C)nnc(SCC(=O)Nc3ccc(C(C)=O)cc3)c21	-10	-16
CC1CC(C)CN(C(=O)CN2CCN(C(=O)Nc3ccccc3)CC2)C1 (stereo unspecified)	0	-2
O=S(=O)(Nc1ccccc1Br)c1cccs1	0	-2

Additional entries.
SMILES	NPYLR7 ag	NPYLR7 ag max-min
CCOC(=O)C1CCCN(C(=O)c2cnn(-c3ccc(Cl)cc3)c2-c2ccccc2)C1 (stereo unspecified)	8	16
CCSC1=N/C(=C\c2ccc3c(c2)OCO3)C(=O)S1	6	2
CCCc1cnc(-c2cccc3[nH]ccc23)nc1	-2	-4
CCOC(=O)CNc1ncnc2c1nnn2C	12	6
CC(C)CN1CCN(C(=O)C2CC(=O)Nc3ccccc32)CC1 (stereo unspecified)	9	7
CCOC(=O)CSc1nc(C)cc(Oc2ccc(=O)n(C)n2)n1	2	-1
CN(C)CC1(O)CCCN(C(=O)C2=Cc3ccccc3OC=C2)CC1 (stereo unspecified)	15	6

4 entries picked at random from the list so far, as already listed:
SMILES	NPYLR7 ag	NPYLR7 ag max-min
CCCc1cnc(-c2cccc3[nH]ccc23)nc1	-2	-4
CN(C)CC1(O)CCCN(C(=O)C2=Cc3ccccc3OC=C2)CC1 (stereo unspecified)	15	6
CCOC(=O)CNc1ncnc2c1nnn2C	12	6
CC(C)CN1CCN(C(=O)C2CC(=O)Nc3ccccc32)CC1 (stereo unspecified)	9	7

Some of the compounds tested; rates above refer to the full screens.
